TAR Tat displ: HIV-1 TAR-Tat binding disruption; HIV-1 TAR RNA, Tat peptide displacement FRET; hits give high values; z-score (no concentration beside the values); 100,000 tested, 0.6% active; AID 1259389;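 note: score is relative to mean and SD of negative controls; some compounds called inactive have numbers as strong as hits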
CDC25B-CDK2 inh: human CDC25B-CDK2/CyclinA binding inhibition. 94,000 tested, 0.72% active. AID 1259370. z-score (test concentration not listed). HTRF CDC25B-CDK2/CyclinA binding, anti-His/anti-Flag; hits give high values;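 note: score is relative to mean and SD of negative controls; strong numbers were not always called active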
* = called active by the depositor; . = not tested or not shown.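 Rule for the calls: active = z-score from 3 up in half or more of its runs; inactive = the rest.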

SMILES | TAR Tat displ | CDC25B-CDK2 inh
Cc1ccc(S(=O)(=O)CC(C)N2CCOCC2)c(S(=O)(=O)CC(C)N2CCOCC2)c1 (configuration not stated) | -0.35 | -2
COc1ccccc1-c1nc2ncccn2c1NCc1ccc(Cl)cc1 | -0.04 | .
CC1=CC(C)(C)N(C(=O)CSc2nccc(C)n2)c2ccc(C)cc21 | 0.45 | -1
COc1cccc(N2CCC(=O)N2)c1 | . | -0.86
COCc1cc(=O)[nH]c2c1c(-c1ccccc1)nn2C | . | -1.9
Nc1ccc2nc(SCC(=O)c3ccc(Br)cc3)sc2c1 | -1.4 | -4.4
Cn1c(=O)c2c(nc(Oc3ccccc3Br)n2C)n(C)c1=O | . | -2.5
COc1ccccc1N1CCN(CCN(C(=O)c2ccc(F)cc2)c2ccccn2)CC1 | . | -1.4
O=C(c1noc2c1CCc1sccc1-2)N1CCOCC1 | -0.47 | .
Cc1ncc(CO)c2c1Oc1nc(-c3cccc(F)c3)nc(SCc3ccncc3)c1C2 | 1.6 | .
CC(=O)N1N=C(c2ccco2)OC1c1cccnc1 (configuration not stated) | 2.9 | .
O=C(O)CSC(CC(=O)c1ccc(Cl)cc1)c1ccccc1 (configuration not stated) | . | -1.9
O=C(c1cc(=O)c2ccccc2o1)N(Cc1cccc(Cl)c1)C1CCS(=O)(=O)C1 (configuration not stated) | -2.1 | -1.5
COc1ccc(NC2c3ccccc3C(=O)N2c2cccnc2)cc1Cl (configuration not stated) | 0.14 | -1.1
CCOc1ccccc1-c1noc(-c2ccncc2)n1 | 2.4 | -2.3
CC1CC(=O)Nc2cc(S(=O)(=O)Nc3cccc(Cl)c3)ccc2S1 (configuration not stated) | 1.4 | .
Nc1nc2n(n1)C(c1ccccc1Cl)CC(c1ccc(F)cc1)N2 (configuration not stated) | 2.4 | -2.4
Cc1cccc(Nc2nc(N3CCOCC3)c3ccccc3n2)c1 | 1.2 | -1.1
Cc1cc(=O)n2nc(N3CCCC(C(=O)NCc4ccco4)C3)sc2n1 (configuration not stated) | 2.6 | -0.25
CCCS(=O)(=O)N1CCCc2ccc(NS(=O)(=O)c3ccc(F)c(C)c3)cc21 | 2 | .
C#CC(C)(C)NC(=O)/C=C\C(=O)O | . | -0.69
CCOC(=O)c1sc2nc3n(c(=O)c2c1C)CCC(C)CC3 (configuration not stated) | 1.2 | -2.8
O=C(CS(=O)(=O)c1ccc(Cl)cc1)c1ccccc1 | -0.63 | -1.7
CC(C)c1ccc(S(=O)(=O)N2c3ccccc3NC3=C(C(=O)CCC3)C2c2ccco2)cc1 (configuration not stated) | -1.5 | .
CC1CN(c2ncc(C(=O)OCc3ccc(Cl)cc3)c(C(F)(F)F)n2)CC(C)O1 (configuration not stated) | . | -1.5
Cc1ccc2nc(NC(=O)CSc3nc4c(c(=O)n3-c3ccccc3)SCC4)sc2c1 | 1.2 | .
O=C(NC1CC1)C1CCC(Cn2c(=S)[nH]c3ccccc3c2=O)CC1 (configuration not stated) | . | -2.8
CC1CC(C)CN(S(=O)(=O)c2cc3c4c(c2)C(C)C(=O)N4CCC3)C1 (configuration not stated) | 1.7 | .
CCOC(=O)c1c[nH]c2cc3c(cc2c1=O)OCO3 | . | -0.46
O=C(CN1C(=O)COc2ccc(C(=O)N3CCCC3)cc21)NCC1CCCO1 (configuration not stated) | 0.8 | .
Cc1cc(=O)nc2c3ccccc3n(CC(=O)N3CCc4ccccc4C3)n12 | -0.37 | -0.66
Cc1cccc(C2CC(c3ccccc3Cl)Nc3nc(N)nn32)c1 (configuration not stated) | 0.3 | -1.1
CCOC(=O)N1CCC(N2CC34C=CC(O3)C(C(=O)Nc3ccc(OCC)cc3)C4C2=O)CC1 (configuration not stated) | 2.4 | -1.1
CCOC(=O)N1CCN(c2c(N3CC(C)CC(C)C3)c(=O)c2=O)CC1 (configuration not stated) | 0.68 | 0.84
CCc1nnc2c(NCc3ccc4c(c3)OCO4)nc3ccccc3n12 | 0.07 | .
Cc1nc(-c2cc(C#N)c(SCCNS(=O)(=O)c3cccc(C(F)(F)F)c3)nc2C)cs1 | . | 0.37
CCN1CCN(c2cc3c(cc2F)c(=O)c(S(=O)(=O)c2ccc(Cl)cc2)cn3CC)CC1 | 0.36 | .
CCCCSc1nnc2c(n1)OC(c1cccnc1)N(C(C)=O)c1ccccc1-2 (configuration not stated) | -1.1 | 0.04
CC12OC(c3ccccc3)=CC(c3ccccc3)=C1C(c1ccccc1)=CC2=O (configuration not stated) | . | -0.7
N#CC1=C(N)OC2=C(C(=O)CC(c3ccccc3)C2)C1c1cccc(F)c1 (configuration not stated) | . | -0.86

Random excerpt: 7 compounds from above.
SMILES | TAR Tat displ | CDC25B-CDK2 inh
CC(C)c1ccc(S(=O)(=O)N2c3ccccc3NC3=C(C(=O)CCC3)C2c2ccco2)cc1 (configuration not stated) | -1.5 | .
CCOC(=O)N1CCN(c2c(N3CC(C)CC(C)C3)c(=O)c2=O)CC1 (configuration not stated) | 0.68 | 0.84
Cc1nc(-c2cc(C#N)c(SCCNS(=O)(=O)c3cccc(C(F)(F)F)c3)nc2C)cs1 | . | 0.37
CC1CN(c2ncc(C(=O)OCc3ccc(Cl)cc3)c(C(F)(F)F)n2)CC(C)O1 (configuration not stated) | . | -1.5
CCN1CCN(c2cc3c(cc2F)c(=O)c(S(=O)(=O)c2ccc(Cl)cc2)cn3CC)CC1 | 0.36 | .
O=C(CN1C(=O)COc2ccc(C(=O)N3CCCC3)cc21)NCC1CCCO1 (configuration not stated) | 0.8 | .
CCOC(=O)c1c[nH]c2cc3c(cc2c1=O)OCO3 | . | -0.46

Given with tabs: part of the list above
Compound	TAR Tat displ	CDC25B-CDK2 inh
Cc1cc(=O)nc2c3ccccc3n(CC(=O)N3CCc4ccccc4C3)n12	-0.37	-0.66
Cc1cccc(C2CC(c3ccccc3Cl)Nc3nc(N)nn32)c1 (configuration not stated)	0.3	-1.1
CCOC(=O)N1CCC(N2CC34C=CC(O3)C(C(=O)Nc3ccc(OCC)cc3)C4C2=O)CC1 (configuration not stated)	2.4	-1.1
CCOC(=O)N1CCN(c2c(N3CC(C)CC(C)C3)c(=O)c2=O)CC1 (configuration not stated)	0.68	0.84
CCc1nnc2c(NCc3ccc4c(c3)OCO4)nc3ccccc3n12	0.07	.

(next part)
SMILES | TAR Tat displ | CDC25B-CDK2 inh
CCCCNC(=O)C1=Cc2cc(Br)ccc2OC=C1 | -1.9 | -1.8
Cc1cc(C)n(-c2nc3ccccc3nc2C)n1 | 0.1 | .
CCCCCOc1ncnc2c1sc1nc3c(cc12)COC(C)(C)C3 | . | 0.03
Cc1c(C)n(CC(C)C)c2ncn3nc(CSc4nc5ccccc5o4)nc3c12 | 0.72 | -1.8
CN1C(=O)C(C)(C)c2cc(S(=O)(=O)N3CCC(C(=O)NC4CCCCC4)CC3)ccc21 | 1.3 | -0.52
COC(=O)c1sc(N2C(=O)C(O)=C(C(=O)c3cccs3)C2c2ccc(C)cc2)nc1C (configuration not stated) | 0.22 | -0.31
OCCCCn1cnc2cc(Cl)c(Cl)cc21 | . | -1.5
CC1(C)Cc2c(sc3nc(NCCO)[nH]c(=O)c23)CO1 | -0.97 | -1.5
COC(=O)c1cc2c(-c3ccc(OC)cc3)ccnc2[nH]1 | 1.1 | -0.13
COc1ccccc1-c1nnc(SCc2ccccc2)o1 | -0.15 | -0.39
Cc1ccc(NS(=O)(=O)c2cc(-c3cc(C)no3)ccc2C)cc1 | -0.25 | .
CSc1nsc(SC)c1NC(=O)Nc1ccccn1 | 0.41 | 0.81
CCc1sc(NC(=O)Cc2csc(C)n2)nc1-c1ccc(Br)cc1 | 0.2 | 0.03
CN(C)C(=S)NCCCN1CCOCC1 | . | -0.93
CCOC(=O)c1ccc2nsnc2c1 | -0.34 | -1.9
CC1NC2(C(=O)N(CC(=O)Nc3ccccc3)c3ccccc32)C2C(=O)N(c3ccccc3)C(=O)C12 (configuration not stated) | -0.3 | -1.1
O=C(O)c1cc(-c2ccc(/C=N/Nc3ccc(Cl)cc3)o2)ccc1Cl | . | -1.2
O=C(c1ccc(F)cc1)c1cn(Cc2ccccc2)c2cc3c(cc2c1=O)OCCO3 | . | -0.25
CC(C)CCNC(=O)Cn1cc2c(n1)CCCCC2 | . | -0.99
CC1Cc2cc(S(=O)(=O)Nc3ccc(F)c(Cl)c3)ccc2N1C(=O)C1CC1 (configuration not stated) | 0.08 | .

Next part; it opens with the 2 that closed the last part.
SMILES | TAR Tat displ | CDC25B-CDK2 inh
CC(C)CCNC(=O)Cn1cc2c(n1)CCCCC2 | . | -0.99
CC1Cc2cc(S(=O)(=O)Nc3ccc(F)c(Cl)c3)ccc2N1C(=O)C1CC1 (configuration not stated) | 0.08 | .
CCC(=O)Nc1nnc(S(=O)(=O)N(C)Cc2ccco2)s1 | 2.4 | -1.3
O=C(CSc1ccsc1[N+](=O)[O-])NC1CCCC1 | -0.7 | -0.96
CCOC(=O)NC(NCCc1ccc(OC)cc1)(C(F)(F)F)C(F)(F)F | . | -2.2
Cc1ccc(S(=O)(=O)c2cn(C)c3cc(N4CCN(C)CC4)c(F)cc3c2=O)cc1C | 0.02 | .
COc1cc(NC(=O)NC(C)c2c(-n3cccc3)sc(C)c2C)cc(OC)c1 (configuration not stated) | -0.74 | -1.2
O=C(O)c1cc2c(s1)CCCC2 | 0.66 | .
O=C(Cc1ccc(Cl)cc1)Nc1nnc2n1CCCS2 | 1.1 | .
O=C1NC(c2ccc(-c3ccc(Cl)cc3)o2)C(C(=O)c2ccc(F)cc2)C(O)(C(F)(F)F)N1 (configuration not stated) | . | -1.6
CCOC(=O)c1noc2ncnc(NCCc3c(C)noc3C)c12 | 0.31 | .
COc1ccc(OCC(O)CNC(=S)Nc2ccc3c(c2)OCCO3)cc1 (configuration not stated) | . | -0.99
CCN(CC)C(=O)COc1ccc2c(C)cc(=O)oc2c1 | . | -0.34
O=C(NCCN1CCCc2ccccc21)C1CCN(c2nnc(N3CCCC3=O)s2)CC1 | 1.7 | .
O=C(CS(=O)(=O)c1cn(Cc2ccccc2Cl)c2ccccc12)N1CCCC1 | . | 0.18
COc1cc(OC)c(NC2c3ncccc3C(=O)N2Cc2cccs2)cc1Cl (configuration not stated) | 1.6 | -1.3
O=C(Nc1ccc2nn(-c3ccccc3)nc2c1)c1cc2ccccc2o1 | 0.15 | -4.2
O=[N+]([O-])c1cccnc1Sc1ccccn1 | . | 1.1
CCOC(=O)C1C(=O)CC(C)(O)C(C(=O)OCC)C1c1ccc2c(c1)OCO2 (configuration not stated) | 0.28 | -1.1
CCOC(=O)C(C)NC(=O)CCc1c(C)nc2c(c1C)c(=O)n(C)c(=O)n2C (configuration not stated) | 0.68 | -0.51
CN1C(=O)c2ccccc2Sc2ccc(NC(=O)N3CCCCC3)cc21 | -1.5 | -1.2
CCc1ccc(NS(=O)(=O)c2cc(-c3noc(C)n3)cs2)cc1 | 1.4 | .
O=C(COCc1cc(-c2ccc(F)cc2)on1)NC1CCCC1 | -0.08 | .
O=C(NC1CCCCC1)c1cc2ccccc2c(=O)s1 | -0.34 | -1.4
Cc1nn2cc(-c3ccc(Br)cc3)nc2s1 | 0.87 | 0.88
O=C(c1cnn(-c2ccccc2)c1-n1cccc1)N1CCN(c2ccccc2F)CC1 | 1.1 | -1
CC1CCc2c(sc3ncnc(N4CCN(CCO)CC4)c23)C1 (configuration not stated) | . | 0.96
CCOC(=O)c1c(CCC(=O)O)c2ccccc2n1C | -0.44 | -0.86
CC1(C)CC(=O)C2=C(C1)Nc1ccccc1N(C(=O)NC1CCCC1)C2c1cccs1 (configuration not stated) | 0.05 | .
CCC(=O)N1CCN(c2cc(N3CCCCC3)nc(C)n2)CC1 | -0.01 | -1.8
Cc1ccc(-n2ncc3c(N(C)C)ncnc32)cc1Cl | 0.69 | .
COc1ccccc1-c1coc2cc(O)ccc2c1=O | 0.51 | .
Cc1c(CNC(=O)c2c([N+](=O)[O-])cnn2C)cnn1C | 0.09 | -1.2
O=C(O)c1cc(-c2ccccc2)nc2n[nH]c(-c3ccc(Cl)cc3)c12 | 2.3 | .
O=S(=O)(c1ccc2c(c1)OCCO2)N1CCCC1c1cccs1 (configuration not stated) | -1.7 | -0.87
Cc1ccc(CN2CCC(CN3CNc4c(c(=O)n(C)c(=O)n4C)C3)CC2)cc1 | 1.9 | -1.4
OC(COc1c(F)cc(Br)cc1F)CN1CCOCC1 (configuration not stated) | 2.1 | -0.26
O=C(Nc1ccc(Cl)cc1)Nc1cc(C2CC2)nn1-c1ccccc1 | . | -1.2
CCSc1nnc2n(Cc3ccccc3)c3ccccc3n12 | 0.33 | 1.2
CCCc1nc2cc3sc(CCC)nc3cc2s1 | 2.3 | 1.4
Cc1cc2c(Oc3ccccc3C)ncnc2s1 | 0.2 | .
CCCS(=O)(=O)c1ccc(NC(=O)Nc2ccc(Cl)cc2Cl)cc1 | . | 2.2
CC1(C)Cc2c(sc3ncn4nc(COc5ccccc5)nc4c23)C(C)(C)N1 | . | -0.39
CCCCn1cc(S(=O)(=O)c2cc(C)ccc2C)c(=O)c2cc(F)c(N3CCN(C)CC3)cc21 | -0.96 | .
CCCN(CCS(=O)(=O)N1CCNCC1)S(=O)(=O)c1cc(C)ccc1C | 1.7 | .
O=c1c2sc3ccccc3c2[nH]c(=S)n1Cc1ccco1 | . | -13
COc1ccc(C2C(C#N)=C(N)OC3=C2C(=O)CC(c2ccccc2Cl)C3)cc1 (configuration not stated) | . | -0.49
c1cncc(CNCc2ccncc2)c1 | -1.1 | -1.6
CC(=O)N1CCOc2cc(S(=O)(=O)N3CCc4ccccc43)ccc21 | -0.25 | -0.1
Cc1ccc(-n2c(=O)[nH]c3nc(N4CCOCC4)sc3c2=O)cc1 | 0.65 | -1.1
Cc1c(Cl)cccc1NC1c2ccccc2C(=O)N1c1ccccn1 (configuration not stated) | 0.65 | -1.3
OC(CN1CCN(c2cccc(Cl)c2)CC1)c1ccc2c(c1)CCN2 (configuration not stated) | 0.44 | 0.31
